# VDR inh: Inhibitors of the vitamin D receptor (VDR): qHTS; Vitamin D3 receptor (Homo sapiens), P11473; VDR-SRC2-3 peptide fluorescence polarization, 2 h; Potency, µM, without a hit: max response, negative = inhibition, actives largely listed as inhibitors; actives 0.93% (n = 400,000); active means well fitted inhibition curve with a large enough effect; inconclusive means small, poorly fitted or top-dose-only effect, or another doubt; inactive means no such curve, though single readings can be large or run the other way; further: series mostly up to about 120 µM
# Target sequence (P11473 whole entry, looked up): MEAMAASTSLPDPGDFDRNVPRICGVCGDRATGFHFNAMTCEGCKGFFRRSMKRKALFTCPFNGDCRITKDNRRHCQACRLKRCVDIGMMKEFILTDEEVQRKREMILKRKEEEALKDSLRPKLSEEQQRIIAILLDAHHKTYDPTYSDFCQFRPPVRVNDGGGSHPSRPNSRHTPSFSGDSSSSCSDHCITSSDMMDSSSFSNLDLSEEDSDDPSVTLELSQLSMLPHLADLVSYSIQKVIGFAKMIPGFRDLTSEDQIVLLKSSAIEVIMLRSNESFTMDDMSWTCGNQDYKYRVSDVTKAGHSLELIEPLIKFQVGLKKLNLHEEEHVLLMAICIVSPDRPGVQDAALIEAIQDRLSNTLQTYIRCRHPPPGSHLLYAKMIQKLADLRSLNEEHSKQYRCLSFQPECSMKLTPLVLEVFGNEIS
#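 Two reagent solutions held at 4 deg C in the dark were dispensed, compounds pinned at 23 nl, and the mixture incubated 2 h at room temperature. Read-out: fluorescence polarization of VDR–SRC2-3 peptide binding.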
# * hit, by the source's call; ? = inconclusive; & = joins results of further samples. On the % scale 0 is the no-effect control and ±100 the full control effect; potency means the concentration at half of the fitted maximal effect.
SMILES,VDR inh
CCN(CC)C(=O)CSc1nnc2sc3ccccc3n12,8.8%
CS(=O)(=O)N(CC(=O)NCC1CCCO1)c1cc(Cl)cc(Cl)c1 (configuration not stated),20.1%
COc1ccccc1NS(=O)(=O)c1ccc(O)c(C(=O)OCc2cccc([N+](=O)[O-])c2)c1,17.5%
COc1ccccc1NC(=O)CN1C(=O)C(C)Oc2ccccc21 (configuration not stated),9.0%
CN1C[C@@H]2[C@@H]3C(=O)N(Cc4ccccc4)C(=O)[C@@H]3[C@](C)(C1=O)N2C(=O)c1ccc(C(F)(F)F)cc1,-9.3%
COc1ccc(-c2cn3cccnc3n2)cc1NC(=O)C1CC1,3.3%
COc1ccc(C(c2nnnn2C(C)C)N2CCN(C(=O)c3ccco3)CC2)cc1 (configuration not stated),2.6%
Cc1ccc(S(=O)(=O)NCC(=O)N(CC2CCCO2)C(C(=O)NC2CCCC2)C(C)C)cc1 (configuration not stated),-13.7%
Cc1ccccc1-c1nc(CS(=O)(=O)CC(=O)Nc2cc(Cl)cc(Cl)c2)c(C)o1,13.0%
O=C(CCCCCn1nnc2ccccc2c1=O)Nc1ccccc1F,8.4%
CCOC(=O)CSc1ncc(-c2ccccc2)nn1,0.3%
COc1ccc(-c2cc(C(F)(F)F)n3ncc(C(=O)NCC4CCCO4)c3n2)cc1OC (configuration not stated),-11.2%
CCN(CCCNC(=O)c1cc(Nc2ccc(OC)cc2OC)nc2ccccc12)c1cccc(C)c1,-13.3%
Cc1nn(CC(N)=O)c(=O)c2ccccc12,12.1%
CCOC(=O)N1CCN(C(=O)C(=O)Nc2sc3c(c2C(=O)O)CC(C)(C)OC3)CC1,-20.7%
CCOc1ccc2[nH]c(=O)c(CN(CCN3CCCC3)C(=S)Nc3ccccc3OCC)cc2c1,-14.7%
CCN(CC)S(=O)(=O)c1ccc2c(c1)N(CC(=O)NCc1ccccc1)C(=O)CS2,-9.5%
O=C(COC(=O)c1cc[n+]([O-])cc1)NCCc1ccc(Cl)cc1Cl,?
CN(C)S(=O)(=O)c1ccc(C(=O)OCC2COC(C)(C)O2)cc1 (configuration not stated),-13.3%
Cc1nc(Cl)sc1C(=O)Nc1cc(F)cc(F)c1,-4.5%
O=C(CN1CCN(S(=O)(=O)c2cccc(Br)c2)CC1)NCCc1cccs1,2.7%
O=C(/C=C/c1ccccc1)OCC(=O)c1ccc[nH]1,-5.6%
Cc1c(C(=O)NCCc2ccc(Cl)cc2)cccc1-n1cnc2cccnc21,7.9%
Cc1[nH]c(-c2ccccn2)nc(=S)c1Cl,-3.1%
COc1ccc2c(C)c(CCC(=O)NCCc3ccc(Cl)cc3)c(=O)oc2c1,-3.7%
NC(=O)c1nsc(C(=O)N(CC(=O)NCc2ccccc2)c2cccc(F)c2)c1N,-14.7%
Cc1cc(C)cc(OCC(=O)Nc2ccc(CN3CCCCC3)cc2)c1,-0.6%
CC12CCC=CC1C(c1ccc(Br)cc1F)N(Cc1ccccc1)C2=O (configuration not stated),?
CCS(=O)(=O)N1CCC(NC(=O)C(Cc2ccc(OC)c(OC)c2)NC(C)=O)CC1 (configuration not stated),-17.3%
COc1ccccc1N1CCN(c2nc(-c3ccccc3)cc(C(F)(F)F)n2)CC1,14.6%
CC1=C(C(=O)OC(C)C)C(c2cncc(-c3ccc(F)cc3)c2)C(C#N)=C(N)O1 (configuration not stated),-8.1%
C=C1c2nc3ccccc3n2C=C(c2ccc(C)cc2)N1c1ccccc1,-6.7%
CCCCC(=O)NC(=S)NNC(=O)CCc1ccccc1,?
COc1ccc(CCNS(=O)(=O)c2ccc(C(=O)NCc3ccco3)cc2)cc1OC,-17.8%
CCCNS(=O)(=O)c1ccc(CCC(=O)N2CCN(CC)CC2)cc1,3.8%
CCOc1ccccc1NC(=O)C1COc2ccccc2O1 (configuration not stated),0.4%
Cn1cc(C(=O)NS(=O)(=O)Nc2ccc(Br)cc2)c2ccccc21,-5.0%
COc1ccc(CC(=O)OC(C)CN2CCCCC2)cc1 (configuration not stated),-2.5%
CC(NCc1ccccc1)c1ccccc1O (configuration not stated),-3.4%
Cc1nc(CC(=O)Nc2nccs2)cs1,-7.3%
COc1cnc(-c2ccccc2)[nH]c1=O,-9.6%
CC(NC(=O)/C(C#N)=C/c1ccc(OCC(=O)O)cc1)c1ccccc1 (configuration not stated),-32.8%
C=CCNc1nc(N)c(C(=C(C#N)C#N)c2ccc(Br)cc2)s1,-6.1%
CCCOC(=O)C(C)n1nnc2sc(-c3ccccc3)cc2c1=O (configuration not stated),5.7%
Cc1cc(F)ccc1NC(=O)CCc1ccc(S(=O)(=O)N2CCOCC2)cc1,-8.1%
N#Cc1c(-c2ccccc2F)cc(C2CC2)nc1SCC(=O)c1cccs1,-1.9%
C/C(=N/NC(=O)c1ccco1)c1ccc(NC(=O)c2ccc(Br)o2)cc1,-1.6%
COc1cccc(CNC(=O)CSC2=Nc3ccccc3C3=NC(C(C)C)C(=O)N23)c1 (configuration not stated),7.7%
On1cnnc1-c1ccccc1,11.4%
CCCCCNc1nc(NCCCO)c(C#N)c2c1CN(C)CC2,1.3%
CCOc1ccccc1Nc1nnc(C)c(=O)[nH]1,7.0%
CN(C(=O)C1CCC(CNS(=O)(=O)c2cccc3cccnc23)CC1)C1CCCCC1 (configuration not stated),4.7%
CCCc1ncc(CN2CCCCC2C(=O)Nc2ccc(Oc3ccccc3)nc2)cn1 (configuration not stated),-4.6%
CCOc1ncccc1C(=O)Nc1ccc(Cl)cc1,?
O=c1c2[nH]c3ccc(Br)cc3c2ncn1CCCn1ccnc1,-6.0%
O=C(O)CSCC(=O)N1CCN(c2cc(C(F)(F)F)nc3ccccc23)CC1,2.6%
CC(C)(C)C(=O)OCc1nc(-c2ccc(F)cc2)cs1,9.5%
CCOc1ccc2nc(N3CCCC(C(=O)NCCc4ccc(Cl)cc4)C3)sc2c1 (configuration not stated),-3.5%
O=C(c1ccc(CS(=O)c2cccc(Cl)c2)o1)N1CCOCC1 (configuration not stated),3.6%
COc1cc(C(=O)N2CCC(n3cnc4cc(F)ccc43)CC2)cc(OC)c1OC,-12.4%
# Continued.
SMILES,VDR inh
CSCCC1NC2(C(=O)Nc3ccc(Cl)cc32)[C@@H]2C(=O)N(C3CCCC3)C(=O)[C@H]12 (some centres not stated),6.7%
Oc1cc2c(cc1C(c1ccc(Br)cc1)N1CCCC1)OCO2 (configuration not stated),39.8µM*
O=C(Nc1ccc(CN2CCS(=O)(=O)CC2)cc1)c1ccc(C(F)(F)F)cc1,1.2%
CSc1nsc(NC(=O)Cc2ccccc2)n1,-22.9%
CCN1C(=O)CSc2ccc(C(=O)NC3CCCCC3)cc21,-19.6%
Cc1cc(C)n(CCC(=O)N2CCN(S(=O)(=O)c3ccc(C)c(C)c3)CC2)n1,-6.3%
CCOC(=O)C1(Cc2ccc(Cl)cc2)CCN(C(=O)CCc2cnccn2)CC1,-8.7%
O=C(NCCNC(=O)c1ccccc1F)c1ccco1,5.2%
CCc1ccc(-n2nc(CO)c(C(=O)NCc3ccccn3)n2)cc1,2.8%
CC(C(=O)Nc1ccc(S(=O)(=O)N2CCCC2)cc1)N1CCCC(C(N)=O)C1 (configuration not stated),0.7%
COc1ccc(N2CCN(S(=O)(=O)CCNC(=O)Cc3ccc(-c4ccccc4)cc3)CC2)cc1,-3.9%
Cc1csc(C(=O)NN)c1N(C)C,-11.1%

# The closing 5 entries of the part before come first, to join the parts:
SMILES,VDR inh
O=C(NCCNC(=O)c1ccccc1F)c1ccco1,5.2%
CCc1ccc(-n2nc(CO)c(C(=O)NCc3ccccn3)n2)cc1,2.8%
CC(C(=O)Nc1ccc(S(=O)(=O)N2CCCC2)cc1)N1CCCC(C(N)=O)C1 (configuration not stated),0.7%
COc1ccc(N2CCN(S(=O)(=O)CCNC(=O)Cc3ccc(-c4ccccc4)cc3)CC2)cc1,-3.9%
Cc1csc(C(=O)NN)c1N(C)C,-11.1%
CC(C)n1c(CNC(=O)c2ccccc2F)nnc1SCC(=O)NC1CCCCC1,4.6%
COc1cccc(/C=N/NC(=O)C(=O)N/N=C/c2cccc(OC)c2O)c1O,-14.4%
c1coc(CNc2ncnc3ccccc23)c1,1.6%
Cc1cc(C)cc(OCC(=O)N(Cc2ccc(Cl)cc2)CC2CCCO2)c1 (configuration not stated),6.3%
CC(Sc1nnc(-c2ccco2)o1)C(=O)NCCC1=CCCCC1 (configuration not stated),-8.4%
Clc1ccc(-n2nnnc2SCc2cn3ccccc3n2)cc1,18.8%
Cc1ccc2[nH]c(=O)c(CN(Cc3ccc4c(c3)OCO4)Cc3nnnn3Cc3ccco3)cc2c1,8.3%
COCc1nc2ccccc2n1CCOc1cccc(C)c1,-0.5%
c1ccc(COc2ccc(Oc3nc(N4CCCCC4)nc(N4CCOCC4)n3)nn2)cc1,3.4%
CC1=C(C)C[C@@]23CCCN2C(=O)CCC[C@H]3C1,-21.7%
CN(c1ccccc1)S(=O)(=O)c1cccc(NC(=O)Cc2c(F)cccc2Cl)c1,0.5%
CCOc1ccc2nc(NC(=O)c3ccc(S(=O)(=O)N4CCOCC4)cc3)sc2c1,3.8%

# Filtered by structure: the entries above with an aryl thioether with sulfur outside any ring
SMILES,VDR inh
CCN(CC)C(=O)CSc1nnc2sc3ccccc3n12,8.8%
CCOC(=O)CSc1ncc(-c2ccccc2)nn1,0.3%
N#Cc1c(-c2ccccc2F)cc(C2CC2)nc1SCC(=O)c1cccs1,-1.9%
CSc1nsc(NC(=O)Cc2ccccc2)n1,-22.9%
CC(C)n1c(CNC(=O)c2ccccc2F)nnc1SCC(=O)NC1CCCCC1,4.6%
CC(Sc1nnc(-c2ccco2)o1)C(=O)NCCC1=CCCCC1 (configuration not stated),-8.4%
Clc1ccc(-n2nnnc2SCc2cn3ccccc3n2)cc1,18.8%

# Remaining list, next part.
SMILES,VDR inh
c1ccn2cc(C34CC5CC(CC(C5)C3)C4)nc2c1,-4.7%
Cc1cccc(OCCOCCn2c(-c3ccc(Cl)cc3)nc3ccccc3c2=O)c1C,-20.1%
C[C@@H](NC(=O)c1cc2c([nH]c3ccccc32)c(-c2ccccc2)n1)C(=O)O,-20.9%
COc1ccc(COc2cc(-c3cccc(OC)c3)nc3ccc(NC(=O)c4cccnc4)cc23)cc1,-1.1%&7.4%
Cc1ccc(C(=O)NCc2nnc(SCC(=O)Nc3ccccc3)n2C)cc1,-13.9%
COc1ccccc1CNS(=O)(=O)c1cccs1,-4.7%
O=C(NCc1ccccc1)C1CC(=O)N(c2ccc(OCC(=O)N3CCCC3)cc2)C1 (configuration not stated),7.1%
COc1ccc(NS(=O)(=O)c2cc(N=Nc3c(O)[nH]c(=O)[nH]c3=O)ccc2Cl)cc1,6.4%
COc1ccc(C2NC(=O)CS2)cc1 (configuration not stated),-2.6%
CCOC(=O)CCCCCC(=O)Nc1ccc2c(c1)C(=O)N([C@H](C)CO)C[C@@H](C)[C@H](CN(C)Cc1ccc3c(c1)OCO3)O2,17.7%
CCC(Nc1ccc(-c2nc(-c3ccco3)no2)cc1[N+](=O)[O-])c1ccccc1 (configuration not stated),1.7%
COc1ccc(NC(=O)Nc2nnc(-c3cccs3)s2)cc1,-7.8%
CCCn1c(N)c(C(=O)CSc2nc(C)cs2)c(=O)n(C)c1=O,23.0%
CCOC(=O)c1ccc(NC(=O)CN2C(=O)CC(c3ccc(C)c(C)c3)=Nc3ccccc32)cc1,5.2%
CCOc1ccc(NC(=O)Cn2cc(C(=O)c3ccc(OC)cc3)c(=O)c3cc4c(cc32)OCO4)cc1,-14.5%
O=C(CSc1nc(C2CCCCC2)nc2ccccc12)N1CCCC1,10.6%
CC(C)OCCCNC(=O)c1cccc2c1C(=O)c1ccc(Cl)cc1S2(=O)=O,-4.0%
O=C1CC2(CCN(C(=O)c3cccc([N+](=O)[O-])c3)CC2)Oc2ccccc21,-10.4%
O=C(NCCN1CCOCC1)c1ccc(CS(=O)(=O)c2c(Cl)cccc2Cl)o1,-20.6%
CCNC(=O)c1c(O)c2ccccc2[nH]c1=O,-10.6%
COc1cccc(N2CCN(C(=S)Nc3ccccc3)CC2)c1,-5.0%
CCNc1ncc2nc(-c3ccccc3)c(=O)n(CCOC)c2n1,-1.4%
CNC(=O)c1c(Br)cnn1-c1ccc(C)cc1,5.8%
CCOC(=O)c1sc(NC(=O)C2C3C=CC(C3)C2C(=O)O)nc1C (configuration not stated),-10.2%
CCc1nc(-c2ccc(C)c(S(=O)(=O)N3CCN(c4ccc(C(C)=O)cc4)CC3)c2)no1,5.7%
COC(=O)c1sc2cc(C(F)(F)F)cnc2c1-c1ccccc1,-12.9%
COc1ccc(CN2CN(S(=O)(=O)c3cccs3)c3nc4ccccc4nc32)cc1,9.1%
COc1ccc(-c2cn(CCO)c(-c3ccncc3)n2)cc1,-10.7%
N#Cc1cccc(NC(=O)COC(=O)c2ccccc2C(=O)c2ccc(Cl)c([N+](=O)[O-])c2)c1,-3.3%
CCOc1ccc(C(CC(=O)O)NC(=O)COc2ccccc2)cc1 (configuration not stated),-1.4%
Cc1cc(=O)[nH]c(SCC(=O)NCc2ccco2)n1,2.6%
Cc1ccc(-n2nc(C)c(/C=N/NC(=O)c3cccs3)c2Cl)cc1,4.3%
Cc1nnc(NC(=O)CCC(=O)NC2CCCCCCC2)s1,4.5%
Clc1ccc(CNc2cc(-c3ccccc3)nc3nncn23)cc1,12.7%

# Screening data deposited in PubChem by National Center for Advancing Translational Sciences (NCATS).

# Not all compounds are listed (hit frequency here may not be typical).
